GALR2 ag = GALR2 (human) receptor agonism; AID 803; O43603; 0.48% of 140,000 active; GALR2-expressing cells, agonist activation read-out; activation, %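 (tested at 5 µM)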;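 active means above mean plus 3 SD of all compounds, about 5% in these data, not always enough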;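 further: 0% = vehicle buffer wells and 100% = reference agonist at full effect; tested in CHO reporter cells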
Target sequence (O43603 whole entry, looked up): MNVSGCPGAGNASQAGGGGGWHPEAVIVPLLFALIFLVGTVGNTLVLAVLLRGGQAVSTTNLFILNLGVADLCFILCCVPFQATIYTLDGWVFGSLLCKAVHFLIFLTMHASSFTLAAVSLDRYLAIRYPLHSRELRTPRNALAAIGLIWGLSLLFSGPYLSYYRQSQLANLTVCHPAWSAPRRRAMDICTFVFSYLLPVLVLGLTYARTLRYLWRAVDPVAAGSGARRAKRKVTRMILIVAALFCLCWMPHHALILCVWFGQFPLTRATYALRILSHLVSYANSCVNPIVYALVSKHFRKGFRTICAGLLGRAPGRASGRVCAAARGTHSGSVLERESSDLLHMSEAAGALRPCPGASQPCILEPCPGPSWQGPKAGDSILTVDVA
Insulin prom inh = TRM-6 insulin promoter activity inhibition; TRM-6 cells (human fetal islet line), insulin promoter-eGFP reporter, imaging; reporter expression induced with tamoxifen; inhibition, % at 2 µM; 0.9% of 130,000 active; AID 1273;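 active means inhibition above the mean plus 3 SD, with well images judged a real hit on visual review, cut at about 60% in these data, passing the limit was not always enough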
PKD1 inh = PKD1 (human) kinase inhibition; Q15139; PKD1 kinase fluorescence polarization assay; inhibition, %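 (about 10 µM by stock and volumes)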; 0.056% of 200,000 active; AID 797;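 active means inhibition of 50% or more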;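 further: controls were vehicle for no effect and a reference inhibitor for full effect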
RGS16-Gao HTS = modulates binding between human RGS16 and Galphao | binding response (% of control), % at 10 µM | O15492+P09471 | 0.38% of 220,000 active | bead-based flow cytometry RGS16-Galphao binding, fluorescence; actives lie on both sides;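 active means below 25% or above 175%, edge rows of some plates excepted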;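 further: Galphao activated by GDP with aluminum fluoride before binding; 100% = wells without compound and 0% = beads without RGS; some results beyond the cut were filed as inactive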
Target sequence (O15492 whole entry, looked up): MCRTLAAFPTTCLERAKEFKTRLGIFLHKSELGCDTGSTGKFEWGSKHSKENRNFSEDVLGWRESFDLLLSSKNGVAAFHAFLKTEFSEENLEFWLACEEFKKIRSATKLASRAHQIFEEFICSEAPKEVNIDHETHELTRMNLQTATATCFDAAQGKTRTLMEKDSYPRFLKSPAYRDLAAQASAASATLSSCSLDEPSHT
Target sequence (P09471 whole entry, looked up): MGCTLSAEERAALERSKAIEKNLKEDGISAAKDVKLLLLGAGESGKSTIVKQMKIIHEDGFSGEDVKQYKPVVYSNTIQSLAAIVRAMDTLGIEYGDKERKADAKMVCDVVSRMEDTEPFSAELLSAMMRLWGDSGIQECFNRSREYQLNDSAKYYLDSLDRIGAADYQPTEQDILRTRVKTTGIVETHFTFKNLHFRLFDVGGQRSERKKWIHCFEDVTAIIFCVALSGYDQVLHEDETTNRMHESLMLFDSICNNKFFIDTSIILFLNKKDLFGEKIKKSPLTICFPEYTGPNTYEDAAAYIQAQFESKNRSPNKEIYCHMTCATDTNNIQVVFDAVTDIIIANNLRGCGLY
HSV replic up = HSV replication enhancement | HSV replication augmentation in cells, fold increase | maximum fold increase | 0.005% of 220,000 active;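 active means peak rise of 1.5-fold or more in the series; tested in PC3 cells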;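 further: first round at 10 µM; read as green reporter fluorescence; hits show the peak of a series up to 25 µM; 1 = signal of infected wells without compound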
Insulin prom inh cell count = also measured in Insulin prom inh; calls as there; normalized cell count, %; measured here: cell count, toxicity; reference of the scale not given here;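 cells exposed to compound for 48 h; stained nuclei by imaging scaled within each plate; lower means fewer cells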
HSV replic up primary fold = also measured in HSV replic up; calls as there; fold increase; compound at 10 µM; measured here: primary screen fold increase 10 uM; tested in PC3 cells;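 GFP signal in the first replicate; 1 = infected wells without compound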
Starred values were filed as active, the others as inactive; i = inactive; . = not tested or not shown; [ ] = remark or other dose.

Each structure is followed by: GALR2 ag, Insulin prom inh, Insulin prom inh cell count, PKD1 inh, RGS16-Gao HTS, HSV replic up, HSV replic up primary fold
CCCn1nc(NC(=O)c2cccs2)c2cc3ccc(C)cc3nc21
→ ., ., ., ., 104, i, 0.94
O=C1/C(=N/n2cnnc2)c2ccccc2N1Cc1ccccc1
→ 0.0, ., ., 0, 94, i, 0.98
COc1ccc(-c2nn(-c3ccccc3)cc2/C=N/NC(=S)NC(C)C)cc1OC
→ 0.2, 20, 134, 3, 131, i, 0.68
COC(=O)c1ccc(OC(=O)C23CCC(C)(C(=O)O2)C3(C)C)cc1 (stereo not given)
→ ., ., ., 7, 100, i, 1.1
COc1ccc(NC(=O)C(C)NS(=O)(=O)c2ccc(NC(C)=O)cc2)cc1Cl (stereo not given)
→ -1.3, -52, 92, -3, 103, i, 0.88
CCN(C(=O)COC(=O)c1cc(-c2cccs2)nc2ccccc12)C1CCS(=O)(=O)C1 (stereo not given)
→ ., 0, 111, 2, 106, i, 0.96
O=C(c1ccc2c(c1)OCO2)N1CCC2(CC1)Oc1ccc(Cl)cc1C(=O)C21CC(c2cccnc2)=NO1 (stereo not given)
→ ., ., ., ., 85, i, 0.81
COc1ccccc1NC(=O)CSc1c2c(nc3ccccc13)CCC2
→ 0.2, 48, 104, -12, 102, i, 0.8
CCC1=NC(c2ccccc2OC)N(O)C1(C)C (stereo not given)
→ -1.4, 28, 86, -3, 101, i, 0.95
Fc1ccc(N/N=C/c2cccnc2)c(F)c1
→ ., 50, 46, -9, 111, i, 1
CN(c1ccccc1)S(=O)(=O)c1ccc(C(=O)Nc2nnc(C3CC3)o2)cc1
→ ., 0, 54, 9, 103, i, 1
O=C(COC(=O)c1cc(S(=O)(=O)N2CCCC2)ccc1O)Nc1ccc(S(=O)(=O)N2CCOCC2)cc1
→ ., ., ., ., 94, i, 1
COc1ccccc1CNC(=O)CNC(=O)c1cn(-c2ccccc2OC)c(=O)c2ccccc12
→ ., -40, 98, -3, 95, i, 0.91
COCc1cc(C)nc2sc(C(=O)N3CCCC3)c(N)c12
→ -0.6, 46, 111, 6, 108, i, 0.94
Cc1ncc(CO)c(/C=N/NC(=S)Nc2ccc(C(C)C)cc2)c1O
→ ., ., ., ., 86, i, 1
O=C(N/C=C\n1cnc2cc(C(F)(F)F)ccc21)c1ccc([N+](=O)[O-])cc1
→ ., ., ., ., 103, i, 0.93
CNC(=S)NCCc1c[nH]c2ccc(OC)cc12
→ ., ., ., -4, 104, i, 0.94
O=C(C(=O)N1CCCc2ccccc21)N1CCCc2ccccc21
→ -2.5, 3, 62, -8, 182*[activator], i, 1.1
O=C(CN1C(=O)NC2(CCCCCCC2)C1=O)N1CCc2ccccc2C1
→ -0.6, 5, 150, -1, 101, i, 0.91
CC(=O)NNc1cc(=O)c2c(=O)n(C)c(=O)n(C)c2[nH]1
→ -1.9, ., ., 4, 105, ., .

By substructure: the compounds so far with fluorine.
Each structure is followed by: GALR2 ag, Insulin prom inh, Insulin prom inh cell count, PKD1 inh, RGS16-Gao HTS, HSV replic up, HSV replic up primary fold
Fc1ccc(N/N=C/c2cccnc2)c(F)c1
→ ., 50, 46, -9, 111, i, 1
O=C(N/C=C\n1cnc2cc(C(F)(F)F)ccc21)c1ccc([N+](=O)[O-])cc1
→ ., ., ., ., 103, i, 0.93

Other entries
Each structure is followed by: GALR2 ag, Insulin prom inh, Insulin prom inh cell count, PKD1 inh, RGS16-Gao HTS, HSV replic up, HSV replic up primary fold
Cc1cc(Br)cc2c(C(=O)Nc3c(C)n(C)n(-c4ccccc4)c3=O)cc(-c3cccs3)nc12
→ -3.2, ., ., 1, 105, i, 0.58
COc1ccccc1N(Cc1cc(=O)[nH]c2ccccc12)C(=O)c1cccc([N+](=O)[O-])c1
→ ., ., ., ., 98, i, 0.74
COc1cc(NS(=O)(=O)c2ccc(NC(C)=O)cc2)cc(OC)c1
→ -1.3, -73, 118, -4, 103, i, 0.92
NS(=O)(=O)c1cccc(NC(=O)COC(=O)/C(=C/c2cccs2)c2cccs2)c1
→ -0.8, 22, 151, -4, 101, i, 0.76
S=C1NC(c2ccccc2)=NCN1c1ccc(Cl)cc1
→ -0.4, -19, 52, 13, 102, ., .
O=C(CN1CCN(Cc2ccc(Cl)cc2)CC1)N/N=C/c1ccccc1F
→ ., ., ., ., 97, i, 1
COc1cc(C(=O)NCCC(=O)NCCc2ccc(Cl)cc2)cc(OC)c1OC
→ -0.7, 36, 146, -19, 105, i, 0.86
Cc1nc(S/C(C(=O)O)=C2/C(=O)Nc3ccccc32)n[nH]1
→ ., ., ., ., 98, i, 1.1
CC1CCN(C(=O)c2scc3c2OCCO3)CC1
→ 0.5, 43, 54, 1, 87, i, 1
Cc1ccn2cc(CSc3ccccc3)nc2c1
→ -1.0, 16, 95, -3, 115, i, 0.86
Cc1ccnc(SCC(=O)N2CCc3ccccc3C2)n1
→ ., 0, 85, -5, 101, i, 0.96
CCn1c(=O)n(CC(=O)NCc2ccccc2OC)c(=O)c2ccccc21
→ -2.6, 31, 111, -3, 91, i, 0.9
COc1cc(CNc2ccc(NC(C)=O)cc2)ccc1OCc1ccccc1C
→ ., -114, 48, 0, 103, i, 0.75
COc1cccc(N(C(=O)C2COc3ccccc3O2)C(C(=O)NC2CCCCC2)c2ccc(O)cc2)c1 (stereo not given)
→ -1.4, -19, 115, -4, 104, i, 0.91
O=C(NC(=Nc1nc2ccccc2o1)NC(=O)c1ccccc1)c1ccccc1
→ -1.4, -25, 79, 9, 58, i, 0.97
COc1ccc(/C=C2\SC(=S)N(CC(=O)NNC(=O)c3ccncc3)C2=O)cc1
→ ., 40, 116, -6, 97, i, 0.99
O=C(Nc1cccn(Cc2cccc(F)c2)c1=O)NC1CCCCC1
→ ., 0, 72, 3, 102, i, 1.3
C/C(=N\Nc1ccc([N+](=O)[O-])cc1)c1ccco1
→ -1.4, -31, 107, -4, 99, i, 1.1
CCc1ccc2nc(NC(=O)CSCc3c(C)noc3C)sc2c1
→ -1.3, 30, 106, -1, 110, i, 0.9
CCC(C)n1c(-c2cc(OC)c(OC)c(OC)c2)nc2nc3ccccc3nc21 (stereo not given)
→ -0.8, -79, 95, 4, 97, ., .
O=S(=O)(NCc1csc(-c2cccs2)n1)c1cccs1
→ ., ., ., ., 100, i, 0.99
N#Cc1cc(-c2ccccc2)cnc1Sc1ccccc1
→ -0.5, ., ., 8, 53, i, 0.91
O=C(CCS(=O)(=O)c1cccs1)NC1CCCCCC1
→ -0.7, -93, 82, 7, 101, i, 0.98
O=C(O)/C(=N/NC(=O)c1ccc(Cl)cc1)c1ccccc1
→ ., ., ., ., 89, i, 0.94
Cc1ccc(NC(=O)CS(=O)CC(=O)NCCCc2ccccc2)cc1Cl (stereo not given)
→ -0.9, -17, 143, -6, 97, i, 0.97
S=C(NCCc1ccccc1)Nc1ccc(Br)cn1
→ ., 41, 99, -2, 101, i, 0.98
CCCC(=O)NC(=S)Nc1ccc(C(C)=O)cc1
→ 1.2, 25, 140, -6, 108, i, 0.89
Cc1ccsc1C(=O)Nc1ccc(O)c(-c2nc3ccccc3s2)c1
→ ., ., ., 2, 97, i, 1.1
CC(/C=C/c1ccco1)=N\NC(=O)c1cccc(Cl)c1
→ -0.1, -8, 96, 6, 98, i, 0.95
O=C(CCC(=O)c1cccs1)Nc1nnc(C2CC2)s1
→ -2.2, ., ., 6, 101, i, 0.86
ONC(=Nc1ccccc1)c1ccccc1Cl
→ 0.5, 2, 146, 3, 106, i, 0.94
OCCC1CN(Cc2cn[nH]c2C2CCCCC2)CCN1Cc1ccccc1 (stereo not given)
→ ., ., ., 5, 102, i, 0.92
CCOCCCNC(=S)N1CCC(C(=O)c2ccc3c(c2)OCCO3)CC1
→ ., -21, 119, -2, 103, i, 1
CSc1ccc(S(=O)(=O)Nc2ccc(OCC(=O)N3CCOCC3)cc2)cc1
→ ., ., ., -2, 96, i, 0.91
Clc1ccc(-c2nnc(NC3=NCCCCC3)o2)cc1
→ -3.8, -18, 93, 2, 107, i, 0.93
CCNC(=O)Nc1cc(OC)c(OC)cc1C(=O)O
→ ., ., ., ., 97, i, 1
Cc1ccc(OCCSc2nnc(C)c(=O)n2N)cc1
→ ., 36, 98, 1, 102, i, 0.93
COc1cc2nc(C3CCC3)nc(N3CCN(c4ccccn4)CC3)c2cc1OC
→ 0.4, ., ., -8, 104, i, 0.83
COc1ccccc1C(=O)NC(=S)Nc1ccc(NC(=O)c2cccs2)cc1
→ 1.0, 17, 119, 3, 96, i, 0.7
CC1(C)Cc2noc(N)c2C(C)(C)N1O
→ -1.9, 12, 161, 6, 100, i, 1.1

As entered above.
In GALR2 ag, `O=C(CCC(=O)c1cccs1)Nc1nnc(C2CC2)s1` shows -2.2
In Insulin prom inh, `Cc1ccc(NC(=O)CS(=O)CC(=O)NCCCc2ccccc2)cc1Cl` (stereo not given) shows -17

Returning to the listing, starting 4 compounds before the break.
Each structure is followed by: GALR2 ag, Insulin prom inh, Insulin prom inh cell count, PKD1 inh, RGS16-Gao HTS, HSV replic up, HSV replic up primary fold
Cc1ccc(OCCSc2nnc(C)c(=O)n2N)cc1
→ ., 36, 98, 1, 102, i, 0.93
COc1cc2nc(C3CCC3)nc(N3CCN(c4ccccn4)CC3)c2cc1OC
→ 0.4, ., ., -8, 104, i, 0.83
COc1ccccc1C(=O)NC(=S)Nc1ccc(NC(=O)c2cccs2)cc1
→ 1.0, 17, 119, 3, 96, i, 0.7
CC1(C)Cc2noc(N)c2C(C)(C)N1O
→ -1.9, 12, 161, 6, 100, i, 1.1
COc1ccc(N(CC(=O)N2CCC(Cc3ccccc3)CC2)S(C)(=O)=O)cc1
→ ., ., ., -5, 107, i, 0.86
CCCOc1c(Br)cc(C(N)=O)cc1OCC
→ ., ., ., 3, 97, i, 1
CCC(=O)n1nc(-c2ccc(OC)cc2)nc1SC
→ -1.6, 89*, 167*, -8, 109, i, 0.9
CC(C)(C)C(=O)NC1(C(F)(F)F)NC(=O)N(Cc2ccccc2)C1=O (stereo not given)
→ ., ., ., ., 97, i, 1.1
N#Cc1c(-c2ccc(Cl)cc2)ccn2nc(CCC(=O)O)nc12
→ -1.1, ., ., 8, 105, i, 0.84
COc1ccc(-c2cc3nc4n(c(=O)c3s2)CCC4)cc1
→ 1.6, -21, 106, 3, 102, i, 0.75
O=C(CN1CCSCC1)c1c[nH]c2ccccc12
→ -0.5, 36, 104, -8, 102, i, 0.92
COc1cccc(OC)c1C(=O)Nc1nnc(-c2cccs2)s1
→ ., 21, 89, -1, 202, i, 0.87
O=C(CCC(=O)OCC(F)(F)C(F)F)Nc1ccccc1F
→ ., -46, 141, 4, 104, i, 1
COc1cccc(N(Cc2nnc3n2CCCCC3)C(=O)Nc2ccccc2)c1
→ ., -8, 101, -1, 108, i, 0.96
CC1CCC(C(=O)NC(C(=O)NCc2cccnc2)C(C)C)CC1 (stereo not given)
→ -5.4, -37, 118, 1, 101, i, 1.1
Cc1ccc(S(=O)(=O)Nc2ccc(N(C)S(=O)(=O)c3ccc(C)cc3)cc2)cc1
→ ., ., ., ., 102, i, 0.95
O=C1/C(=C/c2cccnc2)Sc2ccccc21
→ -2.6, 50, 92, 0, 99, i, 1
CC1(c2nnc(-c3ccncc3)o2)CC(c2ccc([N+](=O)[O-])cc2)=NO1 (stereo not given)
→ ., ., ., ., 110, i, 0.93
O=C(Nc1ccccc1C(=O)NCc1ccccc1)c1ccco1
→ -2.2, 24, 150, -3, 94, i, 0.86
CC(C)(C)Cc1nc(-c2ccccn2)no1
→ -2.6, 55, 124, 7, 103, i, 1
Cc1cc(C)nc(NS(=O)(=O)c2ccc(NC(=O)c3ccc(N4C(=O)CCC4=O)cc3)cc2)n1
→ -1.2, -12, 47, -7, 94, i, 0.97
CC1=CC2CC1C1C(=O)N(c3ccc(S(=O)(=O)Nc4nc(C)cc(C)n4)cc3)C(=O)C21 (stereo not given)
→ -0.3, 44, 68, -5, 101, i, 1
CC1CCCC(C)N1CCNC(=O)Nc1ccc(Cl)cc1 (stereo not given)
→ -0.9, -31, 106, -1, 98, i, 1.1
O=C(N1CCCCC1)C1(c2ccccc2)CCOCC1
→ 0.1, -100, 95, -18, 97, i, 0.98
COc1cccc2cc(-c3ccnc(N)n3)oc12
→ ., ., ., 2, 105, i, 0.84
CC1CCCC(NC(=O)CSc2ncccc2C(=O)O)C1C (stereo not given)
→ -0.5, 24, 93, -8, 105, i, 0.95
O=C(NCc1cccs1)c1cccc(Nc2nc3ccc(Br)cc3[nH]2)c1
→ -2.2, -36, 102, -3, 134, i, 0.84
O=C(Cn1c(=O)[nH]c2ccsc2c1=O)N1CCN(c2ccc(F)cc2)CC1
→ 0.3, 24, 60, 6, 118, i, 1
